HTT prom inh: inhibitors of huntingtin promoter activity. HEK293 HTT promoter firefly luciferase reporter (activity 0% = vehicle and -100% = no light), 24 h. Potency, µM (highest dose often 57.5 µM), without a hit: top-dose activity change, negative = inhibition, usual class: inhibitors. 48,000 tested, 0.93% active. AID 1508623; active = well fitted inhibition curve with a large enough effect; inconclusive = small, poorly fitted or top-dose-only effect; inactive = no such curve, though single readings can be large or run the other way; also: nearly all actives have a fitted effect of over 50% in size
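Firefly luciferase signal from promoter-reporter HEK293 cells was scaled between vehicle (0%) and zero RLU (-100%). Compounds were tested at final concentrations of up to 57.5 uM over 24 h at 37 degrees C. PTC124 at 50 uM final served as control inhibitor.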
PMP22 txn prim: PMP22 gene transcription modulation; S16 Pmp22-F2sN Schwann cells (luciferase reporters placed in the Pmp22 gene), FLuc/NLuc coincidence luminescence, 24 h; 43,000 tested, 2% active; Potency, µM (series often up to 57.5 µM), without a hit: top-dose activity change, negative = inhibition, hits mostly inhibitors; AID 1508649; active = clear falling dose curves in both reporters; inconclusive = both reporters move, but less clearly or upward; inactive = either reporter flat; the % is the NLuc reporter signal; also: % is scaled to controls: 0 for no effect and ±100 for the full control effect; some results filed as inactive show a strong effect at the top dose
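Schwann cells carrying the coincidence reporter were exposed to library compounds for 24 h at 37C, then lysed and read for FLuc and, after quenching, NLuc luminescence on a CCD imager.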
* hit, by the source's call; ? = inconclusive; · = not tested or not shown; & = joins results of further samples; [ ] = dose if it differs, or a comment. Potency is read from the fitted curve at half-maximal effect.

Sample of the layout (5 entries):
SMILES	HTT prom inh	PMP22 txn prim
CCN(CCCNC(=O)Cn1ncc2c([nH]c3ccc(C)cc32)c1=O)Cc1ccccc1	-1.8%	-15.8%
Cc1ccc(CNC(=O)C(=O)NCC(c2cccs2)S(=O)(=O)c2cccs2)cc1 (stereo not given)	-28.3%	-7.7%
CC1=C(C(=O)N2CCN(c3ccccc3)CC2)C2(CCCCC2)OC1=O	-14.5%	-20.3%
CCCN(CCC)CCNC(=O)CN1C(=O)COc2ccc(S(=O)(=O)N3CCC(C)CC3)cc21	-7.8%	-19.1%
COc1ccc(OC)c(NC(=O)c2ccc3c(SCC(=O)O)c4c(nc3c2)CCCC4)c1	-21.5%	-91.3%

The whole of this part, previewed entries included:
SMILES	HTT prom inh	PMP22 txn prim
CCN(CCCNC(=O)Cn1ncc2c([nH]c3ccc(C)cc32)c1=O)Cc1ccccc1	-1.8%	-15.8%
Cc1ccc(CNC(=O)C(=O)NCC(c2cccs2)S(=O)(=O)c2cccs2)cc1 (stereo not given)	-28.3%	-7.7%
CC1=C(C(=O)N2CCN(c3ccccc3)CC2)C2(CCCCC2)OC1=O	-14.5%	-20.3%
CCCN(CCC)CCNC(=O)CN1C(=O)COc2ccc(S(=O)(=O)N3CCC(C)CC3)cc21	-7.8%	-19.1%
COc1ccc(OC)c(NC(=O)c2ccc3c(SCC(=O)O)c4c(nc3c2)CCCC4)c1	-21.5%	-91.3%
CCOc1ccc(CCNC(=O)CCCn2c(=O)c3cccn3c3ccccc32)cc1	-19.9%	-15.9%
CCOc1ccc(-c2nc(C#N)c(NCCCOC)o2)cc1	-15.1%	-50.7%
O=C(CCn1c(=O)c2ccccc2n(CC(=O)Nc2cccc(F)c2)c1=O)NCCc1ccccc1	-8.5%	1.8%
Cc1c(C(=O)Nc2ccc(F)cc2)sc2nc[nH]c(=O)c12	43.4%[activator]	?
Cc1cc(-n2c(SCc3ccccc3F)nc3[nH]ncc3c2=O)ccc1Cl	?	-15.8%
CCOC(=O)Cc1ccc(NC(=O)NCc2cccn2Cc2ccccc2)cc1	-23.8%	-10.3%
Cc1ccc(CNCc2ccccc2)s1	2.8%	-16.6%
COc1ccc(C2=C(C)C(N3CCC(C(=O)NCc4ccco4)CC3)=NS2(=O)=O)cc1	-18.3%	-23.2%
COc1ccccc1CNC(=O)CCn1c(=O)c2ccccc2n(CC(=O)Nc2ccc(Br)cc2F)c1=O	?	?
CC(C)(C)OC(=O)N1CCC(c2c(C(=O)N3CCN(C(=O)c4ccco4)CC3)cnn2-c2cccc(Cl)c2)CC1	-22.5%	?
CCCc1nn2c(=O)cc(COC(=O)c3cccc(NC(=O)CCc4ccccc4)c3)nc2s1	1.3%	-29.9%
Cc1ccc(OCc2ccc(-c3nc(C#N)c(N4CCC(C)CC4)o3)o2)cc1	?	?
CCN(CC)c1nc2c(S(=O)(=O)c3ccc(C)cc3)nnn2c2ccsc12	-1.5%	-25.6%
Cc1cc(C)c(Cn2c(C(O)c3ccccc3)nc3ccccc32)c(C)c1 (stereo not given)	-20.7%	-67.8%
C[N+]12CCC(CC1)C(OC(=O)C(O)(c1ccccc1)c1ccccc1)C2 (stereo not given)	-4.8%	·
COc1ccc(C2C(C(N)=O)=C(C)Nc3nc(CCCO)nn32)c(OC)c1 (stereo not given)	-5.0%	-11.2%
CCc1ccc(NC(=O)C(NS(=O)(=O)c2cccc3nsnc23)c2ccccc2)cc1 (stereo not given)	?	3.3%
Cc1ccc(NC(=O)CN2C(=O)C(C)(C)c3ccccc32)cc1	-11.7%	3.7%
COc1cccc(CSc2nc3ccccc3c3nc(CCn4c(C)nc5ccccc54)nn23)c1	-24.3%	?
CCn1c2c(c(=O)n3ncc(C(=O)N4CCN(c5ccccc5)CC4)c13)CN(Cc1ccc(OC)cc1)CC2	-27.2%	-17.1%
SMILES	HTT prom inh	PMP22 txn prim
Cn1c(=O)oc2cc(S(=O)(=O)NCCC(=O)Nc3ccc(F)c(Cl)c3)ccc21	-8.6%	8.3%
CCN1CCC(n2cc(CNc3cc(Cl)c4ncc(C#N)c(Nc5ccc(F)c(Cl)c5)c4c3)nn2)CC1	6.9%	·
COc1ccc(N2CCN(C(=O)c3nn(-c4ccc(C)cc4)c(=O)n(C)c3=O)CC2)cc1	-22.0%	-19.2%
CC(C)CCNC(=O)[C@@H](c1ccccc1)N1Cc2ccccc2C1=O	-15.1%	-2.2%
CCN(CC)C(=O)C1=CC(c2ccc3c(c2)OCO3)=NS(=O)(=O)N1C	-12.7%	9.1%
O=C(NCCN1CCN(c2ccccc2F)CC1)C1COc2ccccc2C1 (stereo not given)	-18.4%	-17.6%
CCOc1ccc(C(c2c(C)[nH]n(-c3ccccc3)c2=O)c2c(C)[nH]n(-c3ccccc3)c2=O)cc1OC	-29.3%	-11.0%
COc1ccc(CCNC(=O)c2ccc3c(c2)CCN3S(=O)(=O)c2ccccc2)cc1OC	-14.0%	-0.1%
COc1ccccc1CCNC(=O)Cc1ccc(NC(=O)N2CCSc3ncccc32)cc1	?	-11.2%
CCOc1cccc2sc(N(Cc3cccnc3)C(=O)c3ccco3)nc12	-15.4%	-24.0%
O=C1CC(c2cccc(Cl)c2Cl)c2cc3c(cc2N1)OCCO3 (stereo not given)	?	16µM*
Cc1cc2nc(-c3ccc(OCc4ccc(F)cc4)cc3)cc(C(F)(F)F)n2n1	-3.6%	-27.4%
CCOc1ccc(CCNC(=O)c2ccc(-c3nc(CSc4ccccc4)c(C)o3)cc2)cc1	-7.1%	-41.3%
Cc1ccc(Cl)cc1NC(=O)CC1Sc2ccccc2NC1=O (stereo not given)	45.1%[activator]	1.8%
COc1ccccc1N1CCN(CC(O)COc2cccc3ccccc23)CC1 (stereo not given)	-2.7%&9.1%	·
CCN(CC)c1ccc(NS(=O)(=O)c2ccc(-c3coc(C)n3)cc2)c(C)c1	?	?
Cc1ccc2nc(NC(=O)CSc3nccn3-c3ccc(Cl)cc3)sc2c1	?	?
CCN(C(=O)c1cc2c(Cl)nc3ccc(C)cc3c2s1)c1cc(OC)ccc1OC	-15.8%	-26.2%
CCc1ccccc1NC(=O)C(=O)c1cc(C)n(-c2ccccc2F)c1C	-6.7%	-8.0%
Cc1ccc(Cn2c(C)c(CNCc3ccc(OC(C)C)cc3)c(C(=O)O)c2C)cc1	-27.6%	-17.1%
COc1cccc(NC(=O)CSc2nc(=O)n(Cc3ccccn3)c3c2CCC3)c1	?	-17.1%
CCc1nn2c(=O)cc(COC(=O)c3cccs3)nc2s1	53.8%[activator]	-0.8%
CCOC(=O)c1cnc2cc(-c3ccc(Cl)cc3)nn2c1-c1ccccc1	-20.3%	-0.2%
CC1=C(C(=O)NCc2cccc(Cl)c2)C2(CCCCCC2)OC1=O	?	-11.9%
Cc1ccc(-n2c(=O)c3cccnc3n2CC(=O)NCc2ccc(Cl)cc2)cc1	-24.8%	8.6%
SMILES	HTT prom inh	PMP22 txn prim
Cc1ccc(Cl)cc1NC(=O)CSCc1cnn(-c2ccccc2)c1-n1cccc1	?	?
CC1=C(C(=O)Nc2cccc(F)c2)C2(CCCCC2)OC1=O	-21.6%	4.4%
CC1=C(c2ccc(F)cc2)S(=O)(=O)NC1=NCc1ccccc1F	-22.5%	-8.8%
CN1CCN(c2cc3c(nn2)Oc2ccccc2N3C)CC1	6.7%[25.2 µM]	·
CCCCNC(=O)Cn1c(=O)cc(C)c2c(C)nn(-c3cccc(Cl)c3C)c21	-16.9%	2.6%
COc1ccc2oc(=O)c(C(=O)NCCc3c(C)[nH]c4c(Cl)cccc34)cc2c1	-0.4%	?
COc1ccc(Nc2nc(-c3ccccc3)c3cc(Br)ccc3n2)cc1	-3.2%	-27.5%
Cc1ccc(CNc2nc3c(c(=O)n(C)c(=O)n3C)n2Cc2ccc(Cl)cc2)cc1	6.6%	0.0%
CCc1ccc(-n2cnc3cc(C(=O)NCc4ccc(C)cc4)ccc32)cc1	?	5.1%
COc1ccccc1CCNC(=O)c1cccn1-c1nnc(N2CCCCC2)s1	-12.1%	-23.5%
COc1ccc(OC)c(Nc2cc(C(=O)NCc3ccccc3)c3ccccc3n2)c1	-21.6%	-22.4%
CC(NC(=O)c1ccc(Nc2nc3ccccc3n3nnnc23)cc1)c1ccccc1 (stereo not given)	16.4%	-37.0%
COc1ccccc1NC(=O)CSc1ncc(CO)n1Cc1ccc(F)cc1	-13.6%	-0.9%
COc1ccc(-c2cc(C(=O)O)n(Cc3ccccc3)n2)cc1	?	5.3%
CC(C)c1cnc2c(c1SCC(=O)Nc1ccc(OC(F)(F)F)cc1)c(=O)n(C)c(=O)n2C	-12.4%	?
CC(C)c1ccc(NC(=O)Cn2c(=O)n(CC3CCC(C(=O)NCCc4ccccc4)CC3)c(=O)c3ccccc32)cc1 (stereo not given)	1.1%	?
COc1ccc(CCNC(=O)c2nc(SCc3ccc(F)cc3)ncc2Cl)cc1OC	?	-24.3%
OCc1ccc(Cl)cc1Cl	0.0%	·
Cc1ccccc1CN1CCC(CNC(=O)c2cc3ccc4cccnc4c3[nH]2)CC1	-12.3%	?
COc1ccc(-c2cc(OC(=O)c3ccccc3Cl)c3c(C)oc(C)c3c(=O)c2)cc1OC	?	?
CCN(CC)C(=O)CSc1nc2cc3c(cc2c(=O)n1Cc1ccc(C(=O)NCCc2ccc(OC)c(OC)c2)cc1)OCO3	-21.3%	-5.1%
COc1ccc(NC(=O)c2ccc3c(c2)c(C)c(C)n3Cc2ccc(F)cc2)c(OC)c1	-26.2%	?
COC(=O)C1=CO[C@@H](O)[C@@H]2C(CO)=CC[C@@H]12	-9.5%	·
Cc1cccc(N2CCN(C(=O)CN3C(=O)CSc4c3c(C)nn4-c3ccccc3)CC2)c1C	-9.0%	34.4%
COc1ccccc1-c1noc(-c2ccc(N3CCN(c4ccccc4)CC3)c([N+](=O)[O-])c2)n1	-16.3%	-43.0%

Quoted at random: 5 compounds from above
SMILES	HTT prom inh	PMP22 txn prim
CN1CCN(c2cc3c(nn2)Oc2ccccc2N3C)CC1	6.7%[25.2 µM]	·
COc1ccc(-c2cc(OC(=O)c3ccccc3Cl)c3c(C)oc(C)c3c(=O)c2)cc1OC	?	?
CCN(CCCNC(=O)Cn1ncc2c([nH]c3ccc(C)cc32)c1=O)Cc1ccccc1	-1.8%	-15.8%
Cc1ccc(Cl)cc1NC(=O)CSCc1cnn(-c2ccccc2)c1-n1cccc1	?	?
CCc1nn2c(=O)cc(COC(=O)c3cccs3)nc2s1	53.8%[activator]	-0.8%

Continued.
SMILES	HTT prom inh	PMP22 txn prim
CSc1ccc(CCNc2ncnc3onc(C)c23)cc1	1µM*	2.24µM*
CCOc1ccccc1CNC(=O)CCCn1ncn2c(cc3occc32)c1=O	-2.9%	-25.8%
Cc1ccc(OCC(=O)OCc2cc(=O)n3nc(-c4cccs4)sc3n2)cc1	2.5%	-11.0%
CC(C)c1ccc2c(c1)NC(c1ccncc1)=NC(c1cccs1)=N2	1.0%	-15.3%
COc1ccc(-c2nc3sc(CCNC(=O)C(=O)Nc4cc(F)ccc4F)c(C)n3n2)cc1	-9.7%	0.0%
CCc1ccc(NC(=O)CC2C(=O)N(c3ccc(OC)cc3)C(=O)N2Cc2ccc(OC)cc2)cc1 (stereo not given)	-20.8%	9.6%
CCOC(=O)c1ccc(NC(=O)CCc2c(C)nc3c(c(C)nn3C(C)(C)C)c2C)cc1	?	?
Cc1cc(C)c(NC(=O)CN2C(=O)c3cccnc3Sc3ccccc32)c(C)c1	4.7%	11.2%
CCOC(=O)c1cc2c(=O)n3ccccc3nc2n(Cc2ccco2)c1=NC(=O)c1cccc(C)c1	-21.1%	?
CSc1nc(=O)c2c(n1C)NC(=O)CC2c1ccccc1OC(C)C (stereo not given)	-10.4%	?
Cc1oc2ncn(C)c(=O)c2c1C(=O)Nc1ccc(F)cc1	-10.5%	2.8%
COc1ccc(CCNC(=O)C2=C(C)C(=O)OC23CCCCC3)c(OC)c1OC	-16.5%	-5.6%
CC(=O)c1ccc(NS(=O)(=O)c2cccc(S(=O)(=O)c3ccc(Cl)cc3)c2)cc1	?	-3.1%
CN1C(=O)Cc2cc(S(=O)(=O)CCC(=O)Nc3cccc(C(F)(F)F)c3)ccc21	0.0%	-18.4%
Cc1ccc(-c2nn(-c3ccc(F)cc3F)c3c2cnc2c(F)cccc23)cc1	-12.2%	-6.4%
CCOc1ccc(NC(=O)CSc2ncnc3c2sc2ccccc23)cc1	3.0%	?
NC(=O)C1CCN(C(=O)c2cccc(NC(=O)c3nsc4ccccc34)c2)CC1	43.4%[activator]	6.4%
COc1ccc(NC(=O)CCSc2nc(-c3ccc(OC)cc3)cc(C(F)(F)F)n2)cc1	-5.3%	?
Cc1ccc(Cn2c(SCc3ccc(C(=O)NC4CCCC4)cc3)nc3ccncc32)cc1	?	?
COC(=O)c1sc2cccc(F)c2c1S(=O)(=O)Nc1ccc(N(C)C)cc1	0.0%	?
Cc1nn(C)c2c1c(C(F)(F)F)cc(=O)n2C(C)C(=O)N1CCN(c2ccccc2)CC1 (stereo not given)	-17.0%	?
Cc1cc(S(=O)(=O)Nc2cc3c(cc2N2CCOCC2)n(C)c(=O)n3C)ccc1F	-11.5%	0.6%
Cn1cnc(S(=O)(=O)N2CCC(C(=O)N3CCN(c4ccccc4F)CC3)CC2)c1	-8.9%	?
COc1cc(NC(=O)CSc2nc(-c3ccc(C)cc3)nc3c2Cc2ccccc2O3)cc(OC)c1	-12.8%	1.7%
O=C(NCCc1csc(-c2ccc(Cl)cc2)n1)c1ccco1	?	?
Cn1nc(C(=O)NCc2ccc(Cl)cc2)c2c1-c1ccccc1SC2	-15.1%	-39.6%
